MLL AF4-AF9 inh = MLL-AF4/AF9 protein interaction inhibition; inhibition, % at 10 µM; AID 651704; AlphaScreen, biotin-AF4 peptide binding to FLAG-AF9; 0.47% of 350,000 active; P42568;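 active = every replicate reaching a set inhibition limit, whatever the replicate mean, cut at about 25% in these data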;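 also: 0% = plate neutral control median and 100% = total signal loss; the record names both 10 and 1 µM as test concentration; the first replicate is given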
Target sequence (P42568 whole entry, looked up): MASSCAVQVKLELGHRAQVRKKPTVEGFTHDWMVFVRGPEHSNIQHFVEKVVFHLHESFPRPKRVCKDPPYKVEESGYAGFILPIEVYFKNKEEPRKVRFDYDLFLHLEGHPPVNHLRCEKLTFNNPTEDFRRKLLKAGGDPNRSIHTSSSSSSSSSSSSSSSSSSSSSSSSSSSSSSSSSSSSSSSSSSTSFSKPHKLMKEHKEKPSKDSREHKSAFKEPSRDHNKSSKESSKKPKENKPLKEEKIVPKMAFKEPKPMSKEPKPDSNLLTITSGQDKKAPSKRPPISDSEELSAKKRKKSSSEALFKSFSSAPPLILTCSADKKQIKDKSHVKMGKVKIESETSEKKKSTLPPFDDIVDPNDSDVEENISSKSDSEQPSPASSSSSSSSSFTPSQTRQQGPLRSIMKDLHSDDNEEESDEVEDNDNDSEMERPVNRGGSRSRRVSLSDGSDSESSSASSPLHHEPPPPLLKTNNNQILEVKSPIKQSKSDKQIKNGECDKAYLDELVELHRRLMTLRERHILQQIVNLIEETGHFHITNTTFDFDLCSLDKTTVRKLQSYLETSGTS
FGF22 binding = FGF22 (human) thermal shift binding; Q9HCT0; recombinant FGF22 thermal shift, SYPRO orange fluorescence; percent of sucrose octasulfate shift, DMSO zero; calls only at 9.99 µM; 1.5% of 340,000 active; AID 651658;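 active = melting point raised past a set limit in the mean and every replicate; three in four hits are not shown here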
Target sequence (Q9HCT0 whole entry, looked up): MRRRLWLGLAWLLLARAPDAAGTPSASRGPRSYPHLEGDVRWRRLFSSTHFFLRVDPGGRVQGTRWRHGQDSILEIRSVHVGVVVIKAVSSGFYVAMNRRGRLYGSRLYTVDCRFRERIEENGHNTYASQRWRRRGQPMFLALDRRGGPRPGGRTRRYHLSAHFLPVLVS
rRNA inh HTS = inhibitors of bacterial rRNA selective over humanized ribosomes; E. coli WT GFP vs humanized-ribosome RFP mutants, fluorescence, 24 h; hits give low values; DMSO median 0, no signal -100; GFP signal change (wild-type ribosome), % (concentration not given with the values); 1.6% of 350,000 active;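 active = significant combined selectivity score with lowered wild-type GFP, culture density cut under 30%, mutant RFP and density less affected; inactive = any of these conditions unmet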; also: one replicate is shown; some compounds called inactive have numbers as strong as hits
rRNA inh HTS OD600 = second read-out of rRNA inh HTS, no call of its own (marks repeat the call); OD600 change, %; measured here: OD600 growth;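 optical density of the mix in the first replicate; 0 = DMSO median and -100 = no signal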
rRNA inh HTS RFP = recorded beside rRNA inh HTS, whose call it bears; RFP signal change, %; measured here: RFP humanized mutant strains;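 first replicate; 0 = DMSO median and -100 = no signal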
* marks the source's active call; other numbers are inactive results; i = inactive; + = active, no number; & = joins results of further samples. Only part of the results is shown (hit frequency here may not be typical).

SMILES	MLL AF4-AF9 inh	FGF22 binding	rRNA inh HTS	rRNA inh HTS OD600	rRNA inh HTS RFP
C[C@@H]1CN([C@@H](C)CO)C(=O)c2cc(NS(C)(=O)=O)ccc2O[C@@H](C)CCCCO[C@@H]1CN(C)S(=O)(=O)c1cn(C)cn1	-10	i	3	-2	-1.9
C[C@@H]1CN([C@H](C)CO)C(=O)c2cc(NC(=O)Nc3ccc(C(F)(F)F)cc3)ccc2O[C@H]1CN(C)C(=O)NC1CCCCC1	0.1	i	-5	2	-1.5
O=C(C[C@@H]1CC[C@H]2[C@@H](COC[C@H](O)CN2Cc2cccc(F)c2)O1)NCc1ccncc1	-4.5	i	4	13	2.9
O=C(C(=O)N1CCC(CNC(=O)C2COc3ccccc3O2)CC1)c1cccs1 (centres undefined)	2.4	i	7	-7	-0.2
CC(C)CC#Cc1cnc2c(c1)C(=O)N([C@H](C)CO)C[C@H](C)[C@H](CN(C)C(=O)Cc1ccccc1)O2	-2.2	i	-1	-6	-0.1
CN(C)C(=O)c1ccc(-c2ccc([C@H]3[C@@H](CO)N4C(=O)CN(C(=O)CC5CC5)C[C@@H]34)cc2)cc1	-2.4	i	0	8	1.1
CCNC(=O)C[C@@H]1CC[C@@H]2[C@H](COC[C@H](O)CN2C(=O)C2CC2)O1	-1.8	i	-1	7	-5.4
C[C@H]1CN([C@@H](C)CO)C(=O)c2cccc(NC(=O)C3CCOCC3)c2O[C@H]1CN(C)S(=O)(=O)c1ccc(F)cc1	-0.6	i	3	14	0.2
CCCN(CC(=O)Nc1ccccc1C)C(=O)c1cc2ccccc2oc1=O	-1.1	i	3	1	-1.7
C[C@H]1CN([C@@H](C)CO)C(=O)c2cc(NS(C)(=O)=O)ccc2O[C@H]1CN(C)C(=O)NC1CCCCC1	-0.4	i	-2	3	-1.2

Given as labelled records: 4 of the compounds above.
C[C@@H]1CN([C@@H](C)CO)C(=O)c2cc(NS(C)(=O)=O)ccc2O[C@@H](C)CCCCO[C@@H]1CN(C)S(=O)(=O)c1cn(C)cn1
  MLL AF4-AF9 inh: -10
  FGF22 binding: i
  rRNA inh HTS: 3
  rRNA inh HTS OD600: -2
  rRNA inh HTS RFP: -1.9
C[C@@H]1CN([C@H](C)CO)C(=O)c2cc(NC(=O)Nc3ccc(C(F)(F)F)cc3)ccc2O[C@H]1CN(C)C(=O)NC1CCCCC1
  MLL AF4-AF9 inh: 0.1
  FGF22 binding: i
  rRNA inh HTS: -5
  rRNA inh HTS OD600: 2
  rRNA inh HTS RFP: -1.5
O=C(C[C@@H]1CC[C@H]2[C@@H](COC[C@H](O)CN2Cc2cccc(F)c2)O1)NCc1ccncc1
  MLL AF4-AF9 inh: -4.5
  FGF22 binding: i
  rRNA inh HTS: 4
  rRNA inh HTS OD600: 13
  rRNA inh HTS RFP: 2.9
O=C(C(=O)N1CCC(CNC(=O)C2COc3ccccc3O2)CC1)c1cccs1 (centres undefined)
  MLL AF4-AF9 inh: 2.4
  FGF22 binding: i
  rRNA inh HTS: 7
  rRNA inh HTS OD600: -7
  rRNA inh HTS RFP: -0.2

Going on with the list.
SMILES	MLL AF4-AF9 inh	FGF22 binding	rRNA inh HTS	rRNA inh HTS OD600	rRNA inh HTS RFP
CN(C)C(=O)C[C@@H]1CC[C@H]2[C@@H](COC[C@H](O)CN2C(=O)C2CCOCC2)O1	-2.6	i	8	8	33
C[C@@H]1CN([C@@H](C)CO)C(=O)c2cc(NC(=O)Cn3cnnn3)ccc2O[C@H]1CN(C)Cc1ccc(C(F)(F)F)cc1	0.6	i	1	-3	0.6
C[C@H](CO)N1C[C@H](C)[C@@H](CN(C)Cc2cccnc2)Oc2cc(-c3cccnc3)ccc2S1(=O)=O	-1.3&4.0	i	-4	-20	3.7
O=C(NCC[C@@H]1CC[C@@H](NC(=O)C2CC2)[C@@H](CO)O1)c1ccc(F)cc1	-2.1	i	1	1	0.8
C[C@@H]1CCCCO[C@H](CN(C)S(=O)(=O)c2cn(C)cn2)[C@H](C)CN([C@@H](C)CO)C(=O)c2cc(NS(=O)(=O)c3ccccc3)ccc2O1	1.5	i	-3	-1	-2.2
C[C@H]1CN([C@@H](C)CO)C(=O)c2cc(NC(=O)CCC(F)(F)F)ccc2O[C@@H]1CN(C)C(=O)NC1CCCCC1	-2.5	i	0	15	0.3
C[C@H](CO)N1C[C@H](C)[C@@H](CN(C)S(=O)(=O)c2ccc(F)cc2)OCc2cnnn2CCCC1=O	-1.5&-16	i	19&-1	9&0	-0.3&-1.6
CCc1nc2c(OCc3cccc(Cl)c3)cccn2c1N(C)C(C)=O	-0.6	i	-1	-2	8.0
C[C@H]1CN([C@@H](C)CO)C(=O)c2cc(/C=C/c3ccccc3)cnc2O[C@H]1CN(C)C(=O)c1cccc(F)c1	6.5&8.8	i	-7&-9	-22&-10	15&2.8
Cc1ccccc1-c1ccc2c(c1)O[C@H](CN(C)C(=O)c1ccccn1)[C@@H](C)CN([C@@H](C)CO)S2(=O)=O	0.2	i	-6	-17	-2.9
C[C@H](CO)N1C[C@H](C)[C@@H](CN(C)C(=O)Nc2ccc(F)cc2)Oc2ccc(NC(=O)NC3CCCCC3)cc2CC1=O	-0.4	i	0	-5	-2.9
O=C(C[C@H]1CC[C@H](NS(=O)(=O)c2ccccc2F)[C@H](CO)O1)NCCCN1CCOCC1	-2.1	i	-2	10	1.8
CC(=O)N1CCc2cc(NC(=O)C3(C)CCN3CCc3ccccc3)ccc21 (centres undefined)	3.6	i	-7	-27	-4.5
CCNC(=O)[C@@H]1[C@@H](CO)[C@@H]2Cn3c(ccc(C4=CCCC4)c3=O)[C@H]1N2Cc1cccnc1	0.8	i	1	-4	-1.8
C[C@H]1CCCCO[C@@H](CN(C)C(=O)Nc2ccc(F)cc2)[C@@H](C)CN([C@@H](C)CO)C(=O)c2cc(NC(=O)Cc3ccccc3)ccc2O1	0.0	i	4	0	1.2
C[C@@H]1CN([C@@H](C)CO)C(=O)c2cc(NC(=O)c3ccccc3)ccc2O[C@@H](C)CCCCO[C@@H]1CN(C)C(=O)Nc1ccccc1	1.0	i	4	7	1.0
CO[C@H]1CN(C)C(=O)c2ccc(NC(=O)Cc3ccccc3)cc2OC[C@@H](C)N(C(C)=O)C[C@H]1C	-1.3	i	6	1	-2.8
CC(C)c1ccc(CC(=O)N2CCC2(C)C(=O)Nc2ccc3c(c2)OCCO3)cc1 (centres undefined)	0.3	i	-12	-27	-4.6
CC[C@H](C)[C@H]1CNC(=O)C(=O)N1CC1CCN(CCc2ccccc2)CC1	-0.4	i	16	2	3.1
C[C@@H]1CCCCO[C@H](CN(C)C(=O)Nc2ccc(C(F)(F)F)cc2)[C@H](C)CN([C@@H](C)CO)C(=O)c2cc(NC(=O)Nc3cccc4ccccc34)ccc2O1	-2.6	i	4	13	-3.2
O=C(C[C@@H]1CC[C@@H](NC(=O)NC2CCCCC2)[C@H](CO)O1)NCc1ccc(Cl)cc1	-2.4	i	2	12	-2.0
CCCC(=O)Nc1ccc2c(c1)C(=O)N(C)[C@H]1CC[C@@H](CC(=O)NCCN3CCCCC3)O[C@H]1CO2	-1.2	i	1	3	2.4
O=c1[nH][nH]c2c1[C@H](c1ccc(F)cc1)O[C@H](CCc1ccccc1)C2	3.7	i	-7	-12	-5.9
C[C@H](CO)N1C[C@H](C)[C@@H](CN(C)C(=O)Cc2ccncc2)Oc2cc(-c3cncnc3)ccc2S1(=O)=O	-2.2	i	3	6	-1.5
O=C(C[C@@H]1CC[C@@H]2[C@H](COC[C@H](O)CN2CC2CCCCC2)O1)NCc1ccc(F)cc1	-1.1	i	-24	-58	9.6
C[C@H](CO)N1C[C@H](C)[C@@H](CN(C)Cc2ccccc2C(=O)O)OCc2cn(nn2)CCCC1=O	-1.8	i	-1	3	-0.9
O=C(C[C@@H]1CC[C@H](NC(=O)Nc2cc(F)ccc2F)[C@H](CO)O1)NCc1ccncn1	-2.9	i	-2	-7	-0.4
COCc1cn(CC[C@@H]2CC[C@H](NC(=O)Nc3ccc(C(F)(F)F)cc3)[C@@H](CO)O2)nn1	1.2	i	-1	-1	-1.2
C[C@H]1CN([C@@H](C)CO)C(=O)c2cc(-c3cccc(F)c3)cnc2O[C@H]1CN(C)CC1CCOCC1	-3.4	i	0	4	-2.5
OC(c1ccc(-c2ccccc2)cc1)c1ncc(-c2ccccc2Cl)[nH]1 (centres undefined)	-3.7	i	-50	-71	-15
CCS(=O)(=O)Nc1ccc2c(c1)C(=O)N(C)[C@@H]1CC[C@H](CC(=O)N3CCOCC3)O[C@@H]1CO2	-1.3	i	0	3	-4.6
C[C@@H]1CN([C@@H](C)CO)S(=O)(=O)c2ccc(/C=C/c3ccccc3)cc2O[C@@H]1CN(C)Cc1cccnc1	11	i	-2	-33	-0.6
Cc1noc(C)c1S(=O)(=O)N(C)C[C@H]1Oc2ccc(NS(=O)(=O)c3cccs3)cc2CC(=O)N([C@@H](C)CO)C[C@@H]1C	2.6	i	1	3	-1.2
C[C@@H](NC(=O)[C@H]1[C@H](CO)[C@H]2Cn3c(cccc3=O)[C@@H]1N2C(=O)C1CCCC1)c1ccccc1	-2.4	i	1	11	-1.5
CC(C)CC#Cc1cnc2c(c1)C(=O)N([C@H](C)CO)C[C@@H](C)[C@H](CN(C)S(C)(=O)=O)O2	-6.2	i	0	5	-3.7
C[C@H](CO)N1C[C@H](C)[C@H](CN(C)Cc2ccccn2)Oc2cc(C#CCN(C)C)ccc2S1(=O)=O	-1.4	i	-2	-4	-0.5
C[C@H](CO)N1C[C@H](C)[C@@H](CN(C)C(=O)Cc2ccccc2)Oc2cc(C3=CCCCC3)ccc2S1(=O)=O	4.6	i	-8	-9	-2.2
C[C@H]1CCCCO[C@@H](CN(C)C(=O)c2ccccc2)[C@@H](C)CN([C@@H](C)CO)C(=O)c2cc(NS(=O)(=O)c3ccccc3)ccc2O1	1.3	i	-3	1	-1.2
N#C[C@H]1N[C@H](CO)[C@@H]1c1ccc(/C=C/c2ccccc2)cc1	3.1&3.4	i	3	14	-1.8
C[C@H](NC(=O)C[C@H]1C[C@@H]2c3cc(NC(=O)C4CCOCC4)ccc3O[C@@H]2[C@H](CO)O1)c1ccccc1	-0.4	i	4	2	-1.6
O=C1NC[C@H](Cc2ccc(O)cc2)N(C[C@@H]2CCCN2C[C@H](Cc2ccccc2)N2C[C@H](Cc3ccccc3)N(CCc3ccccc3)C(=O)C2=O)C1=O	1.0	i	-8	-6	7.8
CC(C)c1ccc(NC(=O)C2Cc3c(-c4cccc(C(N)=O)c4)ccnc3O2)cc1 (centres undefined)	1.1	i	-52	-69	-10
CCC(=O)N1[C@@H]2c3ccc(/C=C/c4ccccc4)c(=O)n3C[C@H]1[C@H](CO)[C@H]2C(=O)N(C)C	-0.8	i	0	0	-1.6
Cc1noc(C)c1NC(=O)N(C)C[C@@H]1Oc2ncc(C#CCN(C)C)cc2C(=O)N([C@H](C)CO)C[C@H]1C	1.9	i	4	12	-1.0
CCc1nc2ccc(C(=O)N3CCN(S(=O)(=O)CC)CC3)cn2c1N(CC)Cc1cccc(Br)c1	-0.4	i	-13	-31	6.1
CCC(=O)Nc1ccc2c(c1)C(=O)N(C)[C@@H]1CC[C@H](CC(=O)Nc3cccc(OC)c3)O[C@@H]1CO2	1.0	i	-2	-1	-1.0
CCc1cc(C(=O)N(CC)CC(=O)Nc2c(F)cccc2F)sc1C	-2.2	i	1	-1	0.4
Cc1ccc(S(=O)(=O)N[C@H]2CC[C@@H](CCNC(=O)C3CCOCC3)O[C@H]2CO)cc1	-6.8	i	1	4	-0.5
O=C1/C(=C/c2ccc3c(c2)OCO3)SC(=S)N1CCC(=O)N(CCO)c1ccccc1	-4.9	i	9	6	11
O=C(CC(=O)c1ccccc1)Nc1cccc([N+](=O)[O-])c1	2.1	+	3	6	0.6
Other structures:
SMILES	MLL AF4-AF9 inh	FGF22 binding	rRNA inh HTS	rRNA inh HTS OD600	rRNA inh HTS RFP
C[C@@H]1CN([C@@H](C)CO)C(=O)c2cc(/C=C/c3ccccc3)cnc2O[C@@H]1CN(C)C(=O)Nc1ccc(C(F)(F)F)cc1	0.8	i	0	13	0.4
COc1ccc2c3c(n(C)c2c1)[C@H](CO)N(C(=O)Nc1ccc(F)cc1)CC31CCN(C(=O)c2ccccc2F)CC1	0.5	i	1	1	10.0
C[C@H]1CN([C@@H](C)CO)C(=O)c2cccc(NC(=O)C3CC3)c2O[C@H]1CN(C)C(=O)Nc1ccccc1	-2.5	i	5	8	-1.4
CCCC#Cc1cnc2c(c1)C(=O)N([C@H](C)CO)C[C@@H](C)[C@@H](CN(C)C(=O)c1cccc(F)c1)O2	-2.8	i	11	14	-0.9
CCCN1[C@H](C(=O)N2CCCCC2)[C@@H](CO)[C@@H]2Cn3c(ccc(-c4ccccc4F)c3=O)[C@@H]21	-1.0	i	-6	-9	2.0
O=S(=O)(c1ccc(F)cc1)N1C[C@H]2[C@@H](c3ccccc31)[C@H](CO)N2Cc1ccc2c(c1)OCO2	0.3	i	-23	-46	-2.1
Cc1ccc(F)cc1NC(=O)C1CC(=O)N(Cc2ccccc2)C1 (centres undefined)	2.7	i	10	21	1.6

Source: PubChem (Broad Institute)
